Source: PubChem BioAssay (several laboratories)
GALR2 agonist: agonists of human galanin receptor 2 (GALR2); GALR2-expressing cells, agonist activation read-out; activation, %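 (tested at 5 µM)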; actives 0.48% (n = 140,000);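 active means above mean plus 3 SD of all compounds, about 5% in these data, not always enough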;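 further: 0% = vehicle buffer wells and 100% = reference agonist at full effect; tested in CHO reporter cells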
Target sequence (O43603 whole entry, looked up): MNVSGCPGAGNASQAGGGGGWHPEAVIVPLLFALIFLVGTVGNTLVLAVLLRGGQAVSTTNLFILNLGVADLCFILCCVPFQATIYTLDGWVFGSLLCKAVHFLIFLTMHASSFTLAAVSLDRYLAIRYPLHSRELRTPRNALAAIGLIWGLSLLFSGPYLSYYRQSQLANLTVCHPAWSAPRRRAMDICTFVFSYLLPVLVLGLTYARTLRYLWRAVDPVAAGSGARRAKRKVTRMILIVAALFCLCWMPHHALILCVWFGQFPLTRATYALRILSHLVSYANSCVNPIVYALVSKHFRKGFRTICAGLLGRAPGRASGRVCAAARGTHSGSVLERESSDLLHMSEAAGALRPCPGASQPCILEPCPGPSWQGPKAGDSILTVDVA
HSV augment: increases HSV replication in cells; actives 0.005% (n = 220,000); maximum fold increase; HSV replication augmentation in cells, fold increase;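 active means peak rise of 1.5-fold or more in the series; tested in PC3 cells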;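 further: first round at 10 µM; read as green reporter fluorescence; hits show the peak of a series up to 25 µM; 1 = signal of infected wells without compound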
RGS16-Gao HTS: RGS16-Galphao interaction regulator (human); bead-based flow cytometry RGS16-Galphao binding, fluorescence; actives lie on both sides; binding response (% of control), % at 10 µM; actives 0.38% (n = 220,000); O15492+P09471;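 active means below 25% or above 175%, edge rows of some plates excepted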;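 further: Galphao activated by GDP with aluminum fluoride before binding; 100% = wells without compound and 0% = beads without RGS; some results beyond the cut were filed as inactive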
Target sequence (O15492 whole entry, looked up): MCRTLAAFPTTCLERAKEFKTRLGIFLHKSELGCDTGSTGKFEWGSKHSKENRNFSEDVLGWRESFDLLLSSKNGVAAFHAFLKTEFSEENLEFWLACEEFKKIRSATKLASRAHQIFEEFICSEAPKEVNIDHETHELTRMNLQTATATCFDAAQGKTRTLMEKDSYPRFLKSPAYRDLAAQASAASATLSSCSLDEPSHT
Target sequence (P09471 whole entry, looked up): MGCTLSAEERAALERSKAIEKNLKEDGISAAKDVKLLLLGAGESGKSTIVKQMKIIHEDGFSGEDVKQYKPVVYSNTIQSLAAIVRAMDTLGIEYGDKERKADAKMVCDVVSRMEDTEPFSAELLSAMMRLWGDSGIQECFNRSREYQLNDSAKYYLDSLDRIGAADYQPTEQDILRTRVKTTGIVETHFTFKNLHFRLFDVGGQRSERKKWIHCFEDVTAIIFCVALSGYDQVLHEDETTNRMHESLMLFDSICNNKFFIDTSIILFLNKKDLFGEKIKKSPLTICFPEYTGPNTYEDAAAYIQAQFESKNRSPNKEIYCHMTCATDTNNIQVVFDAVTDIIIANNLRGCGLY
PKD1 inh: blocks activity of human protein kinase D1; PKD1 kinase fluorescence polarization assay; inhibition, %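 (about 10 µM by stock and volumes)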; actives 0.056% (n = 200,000); AID 797;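 active means inhibition of 50% or more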;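 further: controls were vehicle for no effect and a reference inhibitor for full effect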
INS promoter inh: TRM-6 insulin promoter activity inhibition | TRM-6 cells (human fetal islet line), insulin promoter-eGFP reporter, imaging; reporter expression induced with tamoxifen | inhibition, % at 2 µM | actives 0.9% (n = 130,000) | AID 1273;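 active means inhibition above the mean plus 3 SD, with well images judged a real hit on visual review, cut at about 60% in these data, passing the limit was not always enough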
INS promoter inh cell count: recorded beside INS promoter inh, whose call it bears; normalized cell count, %; measured here: cell count, toxicity; reference of the scale not given here;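 cells exposed to compound for 48 h; stained nuclei by imaging scaled within each plate; lower means fewer cells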
HSV augment primary fold: recorded beside HSV augment, whose call it bears; fold increase; compound at 10 µM; measured here: primary screen fold increase 10 uM; tested in PC3 cells;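 GFP signal in the first replicate; 1 = infected wells without compound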
* = called active by the depositor; i = inactive; . = not tested or not shown. Not a hit list; about 1.3% have a hit in one of these screens.

Molecule	GALR2 agonist	HSV augment	HSV augment primary fold	RGS16-Gao HTS	PKD1 inh	INS promoter inh	INS promoter inh cell count
CCOC(=O)c1cnc2ccc(C(=O)OC)cc2c1Nc1ccc(C(=O)O)cc1	.	i	0.81	115.5	0.8	13.3	138.1
Cc1ccc(C(C(=O)NC2CCCC2)N(Cc2cccs2)C(=O)CNC(=O)c2cccs2)o1 (configuration not stated)	-2.1	i	0.92	105.7	-12.2	.	.
Cn1c(SCC(=O)c2ccc3c(c2)OCCO3)nnc1C(F)(F)F	.	i	1.02	105.9	.	.	.
O=C(c1cnn2ccccc12)N1CCN(C2CCCCC2)CC1	-1.1	i	0.8	102.9	-7.4	.	.
CC(=O)[C@@H]1[C@@H]2C(=O)N(Cc3ccccc3)C(=O)[C@@H]2C2c3ccccc3C=CN21 (some centres not stated)	-0.8	i	1.11	98.0	-5.3	.	.
Cn1c(N)c(C(=O)COC(=O)C2CCCN2C(=O)c2cccs2)c(=O)n(C)c1=O (configuration not stated)	.	i	1	99.9	-3.5	.	.
O=C(O)c1cc(-c2ccc(N3CCOCC3)cc2)nn1-c1ccc(F)cc1	0.3	i	0.88	97.4	-3.4	.	.
CC(=O)OCCCNc1cc(Sc2ccc(C)cc2)c2nonc2c1[N+](=O)[O-]	-1.3	i	0.96	97.1	-0.2	49.2	123.0
CCN(CC)c1cc(C)c2cc(NC(=O)CNC(C)=O)ccc2n1	-2.3	i	0.86	105.2	-22.7	-93.3	63.6
CCOc1ccc(CNC(=O)NS(=O)(=O)c2ccc(OC)cc2)cc1	-3.5	i	0.92	96.5	-13.4	.	.
O=C(O)C1CSC(c2ccccc2)N1C(=O)c1ccco1 (configuration not stated)	-0.1	i	0.83	103.5	5.1	73.9*	103.6*
Cn1nnnc1SCC(=O)Nc1ccc2c(c1)OCO2	.	i	0.97	97.3	1.7	.	.
C=C(C)CNC(=O)CCc1nnc(C2(c3ccc(Cl)cc3)CCC2)o1	.	i	0.72	98.0	0.8	.	.
CN(NC(=O)c1ccc(Cl)cc1)c1cccc(Cl)n1	0.0	i	0.9	102.3	-1.0	20.6	130.6
COc1cc([N+](=O)[O-])c(OC)cc1SCc1n[nH]c(=S)n1-c1ccc(C)cc1	.	i	1.04	103.5	.	.	.
Cc1ccc(OCc2nnc(SCc3nc4ccccc4[nH]3)n2Cc2ccco2)cc1	-0.8	i	1.13	94.9	19.2	-46.1	99.3
O=C1C=C(NCc2ccncc2)CC(c2ccccc2)C1 (configuration not stated)	-2.4	i	1.1	76.8	4.5	.	.
CCCNC(=O)c1ccccc1NC(=O)CN(c1ccccc1)S(=O)(=O)N(C)C	.	i	1.06	104.8	-8.4	.	.
CN(C)C(=O)CSc1nnc(Cc2ccccc2)n1Cc1ccco1	-1.5	i	1	100.4	-8.4	18.9	126.1
COc1cc(/C=C(/NC(=O)c2ccc(Cl)cc2Cl)C(=O)O)cc(OC)c1OC	-2.8	i	0.97	40.6	13.8	53.3	130.8
Cc1ccc(N/N=C2/CCCNC2=O)cc1	-2.7	i	0.99	102.4	7.7	37.9	137.9
COc1ccc(C(Nc2ccc(S(=O)(=O)NCC3CCCO3)cc2)C(=O)NC(C)(C)C)cc1OC (configuration not stated)	.	i	1.24	105.5	3.5	.	.
CC(=O)c1ccc(NC(=S)NCc2ccc(Cl)cc2Cl)cc1	.	i	0.81	115.1	-5.0	.	.
Cn1nc(-c2ccccc2)c(CSc2ccccc2Cl)c1Cl	-2.6	i	0.79	-85.6	3.6	25.8	116.4
CCCN(CC(=O)Nc1ccc(C(C)=O)cc1)CC(=O)Nc1ccccc1C	.	i	1.03	97.1	6.1	.	.
C/C(CC(=O)N(C(C)C)C(C)C)=N\NC(=O)COc1ccc(Cl)cc1Cl	.	i	1.05	100.7	-4.8	-121.4	39.4
Cc1ccccc1Cn1c(=O)c2c(nc3n2CCCN3Cc2ccccc2)n(C)c1=O	3.0	i	1.1	.	-4.0	-2.8	116.1
COc1ccc(CCn2c(C)cc3c(c2=O)C(c2ccc4c(c2)OCO4)C(C#N)=C(N)O3)cc1OC (configuration not stated)	-0.9	i	0.9	91.1	-0.6	-14.8	51.4
CN1CCC2(CC1)Nc1nc(SCc3ccc(Cl)cc3)nn1C1=C2CN(C)CC1	-0.4	i	0.63	99.0	-0.1	.	.
O=C(CSc1nncs1)NCc1ccc2c(c1)OCO2	-2.1	i	0.73	.	-10.9	-38.5	188.1
COc1ccc(-c2csc(N(CC3CCCO3)C(=O)c3ccccc3)n2)cc1 (configuration not stated)	.	i	1.02	102.7	-2.6	.	.
CC(C)=NNc1nc2c(c(=O)n(C)c(=O)n2C)n1CCc1ccccc1	.	i	0.97	104.0	7.4	.	.
O=C(CCC(=O)N1CCN(c2ccccn2)CC1)Nc1nnc(C(F)(F)F)s1	.	i	1.08	105.9	.	.	.
CC1(C)Cc2c(c(=S)nc(-c3ccccc3)n2CCCN2CCOCC2)CO1	-1.5	i	1.04	114.5	4.7	.	.
CN1CCN(C2=Cc3ccccc3Sc3cc(F)ccc32)CC1	-3.1	i	0.93	115.6	-1.1	-52.4	87.2
CN1c2ccccc2C(C)(C)C12CC(CCl)=NO2 (configuration not stated)	-1.0	i	1.12	119.4	-1.2	-5.1	77.1
CO/N=C/CC(=O)c1ccc(OC)cc1	.	i	1.13	100.7	-4.2	18.2	108.0
COc1ccc(C(=O)NCC(=O)N/N=C/C(C)=C/c2ccccc2)cc1OC	-1.6	i	0.85	92.8	3.1	-107.1	30.7
Cc1ccc(Cn2ncc3c(N4CCOCC4)ncnc32)cc1	-2.7	i	1.01	98.1	2.3	-21.4	84.2
CCn1c(SCC(=O)Nc2ccc(S(=O)(=O)Nc3ccccn3)cc2)nnc1-c1ccncc1	-1.0	i	0.91	97.7	3.9	i	54.9

Ordered by molecular weight (descending): part of the list above
Molecule	GALR2 agonist	HSV augment	HSV augment primary fold	RGS16-Gao HTS	PKD1 inh	INS promoter inh	INS promoter inh cell count
COc1ccc(CCn2c(C)cc3c(c2=O)C(c2ccc4c(c2)OCO4)C(C#N)=C(N)O3)cc1OC (configuration not stated)	-0.9	i	0.9	91.1	-0.6	-14.8	51.4
Cc1ccccc1Cn1c(=O)c2c(nc3n2CCCN3Cc2ccccc2)n(C)c1=O	3.0	i	1.1	.	-4.0	-2.8	116.1
Cc1ccc(N/N=C2/CCCNC2=O)cc1	-2.7	i	0.99	102.4	7.7	37.9	137.9

Remaining list, next part.
Molecule	GALR2 agonist	HSV augment	HSV augment primary fold	RGS16-Gao HTS	PKD1 inh	INS promoter inh	INS promoter inh cell count
Cc1onc(-c2ccccc2Cl)c1C(=O)Nc1c(C)n(C)n(-c2ccccc2)c1=O	-0.5	i	0.96	96.0	-4.1	.	.
C/C(=N\O)c1oc2ccc3c(C)cc(=O)oc3c2c1C	.	i	1	121.8	.	.	.
O=C1NC(NS(=O)(=O)c2ccc(Cl)cc2)(C(F)(F)F)C(=O)N1Cc1cccnc1 (configuration not stated)	-1.2	i	0.99	27.5	2.5	-5.6	45.5
Cc1cc(N2CCCCC2)nc(N2CCOCC2)n1	-2.4	i	1.18	109.5	-1.4	-53.6	33.9
CCCn1c(CCC(=O)O)nc2cc(S(N)(=O)=O)ccc21	.	i	0.86	98.9	.	.	.
Cn1cccc1/C=N/NC(=O)Cc1cccs1	.	i	0.95	89.5	.	.	.
Nc1nncn1C(=O)c1cc(Br)ccc1Cl	-1.6	i	0.94	101.5	-4.9	-40.9	99.8
CC(C)C(=O)Nc1cc2c(cc1C(=O)c1ccccc1)OCCO2	-3.0	i	0.82	97.0	-3.7	-12.1	98.4
CC(=O)Cc1nsc(NC(=O)c2ccc(Cl)cc2Cl)n1	.	i	0.94	101.6	22.2	-26.7	127.1
Cc1cc(C)n(CC(=O)O)n1	1.4	i	0.967	50.0	-1.6	-27.8	120.6
Cc1sc(/C=C2\C(=O)ON=C2c2ccccc2)cc1Br	-0.3	i	1.06	103.8	9.8	42.9	175.7
CNC(=O)NC(=O)COC(=O)c1ccccc1OCc1ccccc1	.	i	0.75	101.6	1.7	.	.
CC(C)CCN(C(=S)NC(=O)C1CCCCC1)c1c(N)n(Cc2ccccc2)c(=O)[nH]c1=O	.	i	0.85	109.6	-5.2	-75.0	54.5
Cc1cc(C)c(S(=O)(=O)c2ccccc2)c(OC(=O)c2ccc(Cl)cc2Cl)n1	-5.8	.	.	105.1	1.0	-21.9	148.1
Cc1onc(-c2c(Cl)cccc2Cl)c1NC(=O)NN(C)c1ccc([N+](=O)[O-])cn1	.	i	1.1	101.5	.	.	.
COc1ccc(NC(=O)C(=O)N/N=C(\C)CC(=O)Nc2cc(C)ccn2)c(OC)c1	.	i	0.81	103.8	.	.	.
COCCNC(=O)C(C)N1c2cccc3cccc(c23)S1(=O)=O (configuration not stated)	-2.4	i	0.98	103.5	-8.1	-383.3	58.2
Clc1ccccc1Oc1cnc2ccccc2n1	0.0	i	1	99.5	8.6	-53.3	31.6
Cc1cc(C)nc(NC(=O)c2c(Cl)cccc2Cl)n1	.	i	0.76	102.1	-5.9	.	.
CCOC(=O)Cn1c(=O)oc2cc(S(=O)(=O)N3CCc4ccccc43)ccc21	-5.3	i	1	103.2	-7.8	.	.
O=C(c1ccco1)N1CCN(CCOCCOc2cccc3ccccc23)CC1	-1.7	.	.	89.4	-5.5	15.2	94.1
C#CCn1c(=NC(=O)c2ccc(S(=O)(=O)N3CCc4ccccc4C3)cc2)sc2cc(S(N)(=O)=O)ccc21	2.7	i	0.55	99.4	-8.8	4.0	143.9
CCOc1cc(/C=N/NC(=O)C(=O)NCCCOC(C)C)cc(Br)c1O	0.7	i	1.13	84.6	-19.1	-11.1	64.1
C/C(=N\Nc1nc2ccccc2[nH]1)c1ccc(N2CCOCC2)cc1	.	i	0.73	107.4	3.0	75.0*	68.8*
O=C(O)/C=C/C(=O)Nc1ccc(O)cc1	.	i	0.93	89.6	.	.	.
Cc1ccsc1C(=O)NCCC(c1ccccc1)c1ccccc1	-1.4	i	1.08	97.5	-2.3	.	.
Cc1ccc(C(=O)N(C)c2ccc(OCC(=O)N3c4ccc(C)cc4C4CN(C)CCC43)cc2)cc1 (configuration not stated)	.	i	1.08	102.0	2.4	.	.
O=C(NCCc1c[nH]c2ccc(Cl)cc12)c1ccc([N+](=O)[O-])cc1	.	i	0.93	112.3	.	.	.
COc1ccc(Nc2nc(NCc3ccco3)nc(N/N=C/c3ccccc3)n2)cc1	-2.4	i	0.92	110.5	-4.5	-12.5	108.5
COc1cc(CNCCNC(=O)c2nonc2N)ccc1OCc1ccc(Cl)nc1	.	i	0.95	98.2	-1.4	.	.
COC(=O)c1sccc1NC(=O)c1ccc(Br)o1	-0.9	i	1.01	113.2	-6.5	16.7	93.8
COc1ccc(-c2noc(Cc3cccs3)n2)cc1	-2.5	i	0.93	103.0	6.7	-43.3	66.0
COC(=O)C1=C(N)Oc2cc(C)n(CCCn3ccnc3)c(=O)c2C1c1ccc(Cl)cc1 (configuration not stated)	-0.5	i	0.83	101.8	13.2	.	.
CC(C)CC(=O)NC(c1ccccc1Cl)c1c(O)ccc2ccccc12 (configuration not stated)	0.3	i	0.93	130.1	1.7	.	.

2 records drawn at random from those above, as already listed:
Molecule	GALR2 agonist	HSV augment	HSV augment primary fold	RGS16-Gao HTS	PKD1 inh	INS promoter inh	INS promoter inh cell count
CN1CCN(C2=Cc3ccccc3Sc3cc(F)ccc32)CC1	-3.1	i	0.93	115.6	-1.1	-52.4	87.2
Cc1ccc(C(=O)N(C)c2ccc(OCC(=O)N3c4ccc(C)cc4C4CN(C)CCC43)cc2)cc1 (configuration not stated)	.	i	1.08	102.0	2.4	.	.
